Lassa entry inh – qHTS for Inhibitors of binding or entry into cells for Lassa Virus; 1.2% of 300,000 active; Potency, µM (doses to about 37.9 µM), without a hit: at the highest dose activity change, negative = inhibition, usual class: inhibitors; Lassa virus pseudotype entry inhibition, cell reporter; control for the full effect not named in the record; active means well fitted inhibition curve with a large enough effect; inconclusive means small, poorly fitted or top-dose-only effect, or effect the other way; inactive means flat fitted curve, though single readings scatter; tested in HEK293 cells; note: % is set by controls: 0 for no effect and ±100 for the full control effect; nearly all actives have a fitted effect of over 50% in size; luciferase read-out
StopGo reporter – High Throughput Screening for Foot and Mouth Disease Virus Antivirals. human cells with a luciferase reporter of 2A StopGo recoding; control for the full effect not named in the record. Potency, µM (series often up to 57.9 µM), inactives show top-dose signal change, negative = less light. 1.2% of 410,000 active. AID 1159524, 2015; active = well fitted falling curve with a large enough effect; inconclusive = small, poorly fitted or top-dose-only effect; inactive = no such curve, though single readings can be large or run the other way; tested in HEK293T cells; note: % is set by controls: 0 for no effect and ±100 for the full control effect; nearly all actives have a fitted effect of over 45% in size; luciferase light after 4 h
Cruzain inh noDet – qHTS Assay for Promiscuous and Specific Inhibitors of Cruzain (without detergent). Cruzipain (Trypanosoma cruzi), P25779. purified cruzain, Z-FR-AMC fluorescence, no detergent. Potency, µM, inactives show max response, negative = inhibition, hits mostly inhibitors. 2.3% of 200,000 active;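 note: plate controls were enzyme without inhibitor for no effect and buffer without enzyme for full effect; nearly all actives have a fitted effect of over 40% in size; top concentration of the series not given in the record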
Target sequence (P25779 123-467 limits assumed): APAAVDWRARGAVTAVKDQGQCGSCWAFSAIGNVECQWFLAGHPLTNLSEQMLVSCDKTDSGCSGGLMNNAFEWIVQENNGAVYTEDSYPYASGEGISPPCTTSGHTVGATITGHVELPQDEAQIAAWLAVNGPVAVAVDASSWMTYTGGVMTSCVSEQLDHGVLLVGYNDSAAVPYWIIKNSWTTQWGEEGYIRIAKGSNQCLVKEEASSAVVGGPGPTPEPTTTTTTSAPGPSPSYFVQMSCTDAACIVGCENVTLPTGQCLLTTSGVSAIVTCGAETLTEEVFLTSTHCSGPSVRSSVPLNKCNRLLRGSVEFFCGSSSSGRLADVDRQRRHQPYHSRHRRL
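Purified cruzain at 1.5 nM, pre-incubated 15 min with compound at room temperature in 100 mM sodium acetate pH 5.5, 5 mM DTT, 0.00005% Triton X-100. Reaction started with 2 uM Z-FR-AMC; AMC fluorescence increase over 60 s gives rate.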
RE007 growth inh – qHTS Assay for Inhibitors of the HIV-1 protein Vpr | S. pombe RE007 Vpr strain, BacTiter-Glo ATP luminescence, 24 h; control for the full effect not named in the record | Potency, µM (highest dose often 92.2 µM), for the others: at the highest dose activity change, negative = less growth | 0.21% of 360,000 active | AID 651644, 2012; active = well fitted falling curve with a large enough effect; inconclusive = small, poorly fitted or top-dose-only effect; inactive = no such curve, though single readings can be large or run the other way;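 note: % is set by controls: 0 for no effect and ±100 for the full control effect; nearly all actives have a fitted effect of over 50% in size; the assay follows cell death caused by Vpr and the record does not say whether a fall means rescue or toxicity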
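Fission yeast RE007 carrying one integrated HIV-1 vpr copy, seeded at OD 0.01 in PMG+AL medium with 23 nL pinned compound. Grown 24 h at 30 degrees; viability read by BacTiter-Glo luminescence after 5 min.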
NS1 inh – qHTS Assay for Inhibitors of Influenza NS1 Protein Function; S. cerevisiae slowed by influenza A NS1, growth recovery by OD600; AID 2326, 2010; Potency, µM (titrated, usually from 46.1 µM), for inactives: at the highest dose activity, positive = more growth; 0.4% of 270,000 active; active means well fitted rising curve with a large enough effect; inconclusive means small, poorly fitted or top-dose-only effect; inactive means no such curve, though single readings can be large or run the other way; note: nearly all actives have a fitted effect of over 50% in size
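OD600 was taken as the measure of yeast growth restored by compound in an NS1-expressing S. cerevisiae strain. Cells had been washed out of glucose medium and diluted 1:100 into galactose -URA medium, pH 6.0.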
Cruzain Triton – qHTS Assay for Promiscuous and Specific Inhibitors of Cruzain (with detergent); purified cruzain, Z-FR-AMC fluorescence, 0.01% Triton; Potency, µM, for the others: max response, negative = inhibition, hits mostly inhibitors; 0.43% of 200,000 active; AID 1478, 2009;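 note: plate controls were neutral wells for no effect and buffer without enzyme for full effect; nearly all actives have a fitted effect of over 40% in size; top concentration of the series not given in the record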
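Steps: dispense cruzain (1.5 nM final) in acetate buffer pH 5.5 with DTT and 0.01% Triton X-100; pin-transfer compounds; incubate 15 min RT; add Z-FR-AMC (2 uM final); read fluorescence every 30 s, using the 60 s intensity change.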
MARV entry inh – qHTS for inhibitors of binding or entry into cells for Marburg Virus. Marburg virus pseudotyped entry inhibition, cell reporter; control for the full effect not named in the record; about a third of the inactives were read at about 46 µM. Potency, µM (series often up to 37.8 µM), without a hit: at the highest dose activity change, negative = inhibition, most hits filed as inhibitors. 1.8% of 300,000 active; active = well fitted inhibition curve with a large enough effect; inconclusive = small, poorly fitted or top-dose-only effect, or effect the other way; inactive = flat fitted curve, though single readings scatter; tested in HEK293 cells; about a fifth of its hits are not listed in these tables; note: % is set by controls: 0 for no effect and ±100 for the full control effect; luciferase read-out
SARS PLP yeast – qHTS of Yeast-based Assay for SARS-CoV PLP; S. cerevisiae expressing SARS-CoV PLpro, growth rescue; control for the full effect not named in the record; Potency, µM (top dose mostly 32.9 µM), for the others: top-dose activity, positive = growth rescue; 0.19% of 330,000 active; AID 485353, 2010; active means well fitted rising curve with a large enough effect; inconclusive means small, poorly fitted or top-dose-only effect; inactive means no such curve, though single readings can be large or run the other way; note: 0% is about no effect; nearly all actives have a fitted effect of over 55% in size; growth read by luminescence after 48 h
Numbers without * were called inactive; ? = inconclusive; . = no result given; & = joins results of further samples; [ ] = remark or other dose. Unless noted, calls come from the whole dose curve; as a rule, active = well fitted curve in the direction sought with a large enough effect; inconclusive = small, poorly fitted or top-dose-only effect, or another doubt; inactive = no such curve, though single readings can be large; an effect the other way counts as inactive or inconclusive. Potency is the fitted concentration of half-maximal effect. Compounds were not picked by outcome; 4.5% or so of the library scored in one or more.

The opening 4 records (preview)
SMILES	Lassa entry inh	StopGo reporter	Cruzain inh noDet	RE007 growth inh	NS1 inh	Cruzain Triton	MARV entry inh	SARS PLP yeast
O=[N+]([O-])c1ccc(Cl)cc1Sc1ccccn1	0%	-13%	0%	-22%	-9%	1.2%	5%	-3%
CCOc1ccc(C(=O)N(C)C2CCS(=O)(=O)C2)cc1 (centres undefined)	-1%	-1%	3%	2%	5%	3.3%	5%	2%
O=C(CC1SCCNC1=O)Nc1ccc(Cl)cc1 (centres undefined)	.	17%	.	3%	3%	.	?	0%
COc1ccc(Cc2nnc(SCC(=O)NCCc3ccccc3)o2)cc1	-2%	-2%	6%	-7%	-45%	4.8%	?	?

Main list, from the start:
SMILES	Lassa entry inh	StopGo reporter	Cruzain inh noDet	RE007 growth inh	NS1 inh	Cruzain Triton	MARV entry inh	SARS PLP yeast
O=[N+]([O-])c1ccc(Cl)cc1Sc1ccccn1	0%	-13%	0%	-22%	-9%	1.2%	5%	-3%
CCOc1ccc(C(=O)N(C)C2CCS(=O)(=O)C2)cc1 (centres undefined)	-1%	-1%	3%	2%	5%	3.3%	5%	2%
O=C(CC1SCCNC1=O)Nc1ccc(Cl)cc1 (centres undefined)	.	17%	.	3%	3%	.	?	0%
COc1ccc(Cc2nnc(SCC(=O)NCCc3ccccc3)o2)cc1	-2%	-2%	6%	-7%	-45%	4.8%	?	?
Cc1ccc(C)c(N2CCN(c3ccncc3N)CC2)c1	.	-21%	.	-13%	-7%	.	.	0%
CC1=C(C(=O)OC2CCCCC2)C(c2cccs2)n2c(nc3ccccc32)N1 (centres undefined)	-3%	-16%	?	-9%	-3%	-8.7%	-23%	-9%
CCN(CCn1cccn1)Cc1nc(-c2ccccc2)no1	?	-1%	.	7%	-1%	.	-3%[46.1 µM]	-2%
Cn1c(=O)c(C(=O)COC(=O)c2cc(-c3ccccc3)nc3ccccc23)c(N)n(Cc2ccccc2)c1=O	4%	.	10µM*	.	15%	-0.2%&-1.0%	-27%&-27%	-8%
COc1cccc(CNC(=O)CN(C)S(=O)(=O)c2ccc3c(c2)CC(C)N3C(C)=O)c1 (centres undefined)	.	9%	.	2%	9%	.	.	-13%
Cc1cc(C)cc(S(=O)(=O)Nc2cccc(-c3ccc(N4CCOCC4)nn3)c2)c1	-17%[46.1 µM]	68%[activator]	?	.	.	-2.7%	.	.
CC(=O)Nc1ccc(Nc2c3ccccc3nc3ccccc23)cc1	.	?	.	-17%	4%	.	.	0%
COC(=O)COn1c(SC(C)C)nc2ccccc2c1=O	19%	11%	16%	-2%	-91%	2.4%	11%	-11%
CCN(CC)CC(=O)Nc1cccc2c1C(=O)c1ccccc1C2=O	-25%	-26%	.	-4%	.	.	0%	2%
CS(=O)(=O)N1CCc2cc(C(=O)N3CCCC3)ccc21	-6%[46.1 µM]	-5%	.	-6%	.	.	-22%[46.1 µM]	-5%
COc1ccccc1N1CCN(C(=O)CN2C(=O)COc3ccc(S(=O)(=O)N4CCOCC4)cc32)CC1	1%[46.1 µM]	11%	?	.	.	-1.6%	5%[46.1 µM]	.
CCc1nc(N)nc(N)c1-c1ccc(Cl)c([N+](=O)[O-])c1	?	?	.	18%	.	.	?	.
CCOC(=O)c1c(O)c2cc(Cl)ccc2n(CC)c1=O	-1%	7%	.	-8%	-44%	.	-6%[46.1 µM]	0%
CCN(CC)c1ccc(CNc2ccc(Br)cn2)cc1	?	28%	?	16%	-8%	-4.5%	?	-1%
CCOC(=O)c1cccc(C(=O)OCC)n1	11%	0%	4%	5%	-1%	3.7%	0%	-1%
CCCc1nnc(NS(=O)(=O)c2ccccc2)s1	20%	7%	.	-2%	-13%	.	-6%	4%
COCCCNc1nc2ccccc2nc1NS(=O)(=O)c1cccc(C)c1	?	12%	.	-3%	2%	.	13%	1%
O=c1[nH]cccc1-c1nc2ccccc2n1Cc1ccc(F)cc1	.	-14%	.	7%	4%	.	.	-2%
O=C(Cc1ccccc1)NCC(=O)Nc1cccc(Br)c1	0%[46.1 µM]	8%	.	-3%	.	.	-1%[46.1 µM]	-2%
Cc1cc(C(=O)N/N=C/c2ccc(N(C)C)o2)cs1	.	-16%	.	2%	?	.	.	-4%

Two compounds picked at random from those above:
SMILES	Lassa entry inh	StopGo reporter	Cruzain inh noDet	RE007 growth inh	NS1 inh	Cruzain Triton	MARV entry inh	SARS PLP yeast
CCOC(=O)c1cccc(C(=O)OCC)n1	11%	0%	4%	5%	-1%	3.7%	0%	-1%
COc1ccccc1N1CCN(C(=O)CN2C(=O)COc3ccc(S(=O)(=O)N4CCOCC4)cc32)CC1	1%[46.1 µM]	11%	?	.	.	-1.6%	5%[46.1 µM]	.

Next entries
SMILES	Lassa entry inh	StopGo reporter	Cruzain inh noDet	RE007 growth inh	NS1 inh	Cruzain Triton	MARV entry inh	SARS PLP yeast
O=C(Nc1ncc2c(n1)-c1ccccc1CC2)c1ccccc1	-6%	31%[activator]	7%	-14%	-35%	1.3%	-1%	-9%
COc1ccc(CN2CCc3nc(Nc4ccccc4)ncc3C2)c(OC)c1OC	-14%[46.1 µM]	?	-12%	.	.	-16%	.	.
CCOC(=O)c1c(C)nc2ccccc2c1C	7%	-1%	-1%	-11%	-16%	-2.2%	7%[46.1 µM]	-7%
O=C(Nc1nnc(CCN2CCOCC2)s1)c1ccccc1	11%	27%	-10%	-1%[3.69 µM]	-4%	-0.2%	?	-2%
Cc1cccn2c(=O)cc(COc3cccc(NC(=O)Nc4cccc(Cl)c4)c3)nc12	0%[46.1 µM]	-1%	0%	.	.	4.2%	.	.
COc1ccc(OCCCn2c(C3CC(=O)N(c4ccc(F)cc4)C3)nc3ccccc32)cc1 (centres undefined)	?	-11%	19%	.	.	-8.6%	?	.
Cc1ccc(-c2csc(=Nc3ccc(F)cc3)n2Cc2ccc3c(c2)OCO3)cc1C	-1%[46.1 µM]	-19%	-11%	.	.	-6.8%	15%[46.1 µM]	.
O=C(Nc1cccc([N+](=O)[O-])c1)c1ccc2nsnc2c1	24%[46.1 µM]	-5%	.	19%	4%	.	21%[46.1 µM]	1%
